Assay outcomes (PubChem)
NPYLR7 ag: agonists of mosquito NPYLR7 receptor, primary screen, cell-based, Aedes aegypti, calcium fluorescence, mosquito biting behavior | HEK293T NPYLR7/Galpha15, GCaMP6s calcium fluorescence | activation, % at 10 µM | hit rate 0.15% among 270,000 | AID 1259423, 2018; in the data active = activation above about 40%;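 also: 0% = vehicle and 100% = reference agonist at the receptor; some compounds past the cut are filed as inactive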
NPYLR7 ag max-min: further read-out of NPYLR7 ag, marked with its call; activation, %; measured here: Max-Min RFU normalised activation; some inactives read as strong as hits;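 span of the calcium signal over five minutes; 0% = vehicle and 100% = native peptide agonist; compound fluorescence can raise it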
Starred values were filed as active, the others as inactive; & = joins results of further samples.

SMILES | NPYLR7 ag | NPYLR7 ag max-min
CC(C)CSc1nnc(SCC(=O)Nc2ccc(C#N)cc2)s1 | 4 | 0
O=C(Nc1ccc2c(c1)CCC2)C1CCN(c2nccs2)CC1 | -1 | -3
CCCOC1CCCN(C(=O)c2ccc3c(c2)OCO3)C1 (stereo unspecified) | -2 | 6
COc1ccccc1NS(=O)(=O)c1ccc(Cl)cc1 | -1 | -9
Cc1cc2cc(CCNC(=O)c3cccc(C(F)(F)F)c3)c(=O)[nH]c2cc1C | 1 | 8
CS(=O)(=O)N1CCC(NC(Cn2ccnc2)c2ccccc2)CC1 (stereo unspecified) | 2 | 1
COC(=O)C(C)CS(=O)(=O)Nc1ccc(F)c(NC(C)=O)c1 (stereo unspecified) | 0 | 0
COCCOC(=O)C1=C(C)N(C)C(=S)NC1c1ccc(NC(=O)c2cccc([N+](=O)[O-])c2)cc1 (stereo unspecified) | 9 | 24
COC(=O)CCCCC(=O)N1CCC(n2c(=O)oc3cc(C)ccc32)CC1 | 27 | 34
C=CCN(CC1CC(c2ccc(Cl)cc2)=NO1)CC(C)(O)C=C (stereo unspecified) | -3 | -3
COC(=O)Cn1c(=O)c2c(nc3n2CC(C)CN3c2ccc(Oc3ccccc3)cc2)n(C)c1=O (stereo unspecified) | -4 | -2
CCc1cc(C2CCCN2C(=O)NCC(C)C)on1 (stereo unspecified) | 1 | -1
COc1ccc(CC2SC(=Nc3ccccn3)NC2=O)cc1 (stereo unspecified) | 8 | 3
CCOc1ccc(CN(C)C(=O)Cn2nc(C(=O)O)c3ccccc3c2=O)cc1 | 8 | 3
COc1ccc(CN(C)C(=O)[C@H]2C[C@@H]3C=C[C@H]2C3)c2cccnc12 | 1 | -1
CNC(=O)C12CCC(C)(c3nc4cc(C)c(C)cc4nc31)C2(C)C (stereo unspecified) | -3 | -3
CCCCCCNC(=O)c1cc(-c2ccccc2F)nc2cc(C(C)(C)C)nn12 | -8&-11 | 8&-8
Cn1ccnc1C(=O)c1cccc(-c2ccccc2CN2CCOCC2)c1 | 9 | 6
O=C(NCCNC(=O)C1CCN(C(=O)c2ccc(Cl)c(Cl)c2)CC1)c1ccccc1 | 11 | 9
Cc1cccc(NC(=O)C23CCC(C)(C2Br)C3(C)C)c1 (stereo unspecified) | 1 | -2
Cc1ccc(C2(O)CCN(Cc3cc(=O)[nH]c(C4CC4)n3)CC2)nc1 | 1 | -8
NCC1CCC(C(=O)O)CC1 (stereo unspecified) | -2&0 | -10&-7
COc1ccccc1NC(=O)NCC(O)CN1CCc2ccccc2C1 (stereo unspecified) | 4 | 3
COc1ccc(C(=O)C2CCCN(Cc3ccc4nonc4c3)C2)cc1OC (stereo unspecified) | 6 | 0
CN1C[C@H](O)[C@]2(CCN(c3ccccn3)C2)S1(=O)=O | 3 | 4
NC(=O)c1cccnc1N1CCC(n2cc(-c3ccsc3)nn2)CC1 | 1 | -1
O=C1CCCN1CCC1CCN(Cc2nc(-c3ccc(Cl)cc3)no2)CC1 | 5 | 1
Nc1nc2ccc(OC(F)(F)F)cc2s1 | 0&-12&-4&1 | 35&-17&-7&-14
Cc1cc2n(c1)CCn1c(C)ccc1-2 | 13 | 3
COc1ccc(-c2onc(C)c2C(=O)NC(C)CCc2ccccc2)cc1 (stereo unspecified) | 19 | 10

Grouped by structure: the compounds so far with four or more nitrogen atoms.
SMILES | NPYLR7 ag | NPYLR7 ag max-min
CC(C)CSc1nnc(SCC(=O)Nc2ccc(C#N)cc2)s1 | 4 | 0
CS(=O)(=O)N1CCC(NC(Cn2ccnc2)c2ccccc2)CC1 (stereo unspecified) | 2 | 1
COCCOC(=O)C1=C(C)N(C)C(=S)NC1c1ccc(NC(=O)c2cccc([N+](=O)[O-])c2)cc1 (stereo unspecified) | 9 | 24
COC(=O)Cn1c(=O)c2c(nc3n2CC(C)CN3c2ccc(Oc3ccccc3)cc2)n(C)c1=O (stereo unspecified) | -4 | -2
CCCCCCNC(=O)c1cc(-c2ccccc2F)nc2cc(C(C)(C)C)nn12 | -8&-11 | 8&-8
Cc1ccc(C2(O)CCN(Cc3cc(=O)[nH]c(C4CC4)n3)CC2)nc1 | 1 | -8
NC(=O)c1cccnc1N1CCC(n2cc(-c3ccsc3)nn2)CC1 | 1 | -1
O=C1CCCN1CCC1CCN(Cc2nc(-c3ccc(Cl)cc3)no2)CC1 | 5 | 1

Next results
SMILES | NPYLR7 ag | NPYLR7 ag max-min
c1cncc(COC2CCN(Cc3cnc(CC4CCCC4)[nH]3)CC2)c1 | -3 | -12
CCSC1CCC(N(C)C(=O)Cc2cccc(O)c2)C1 (stereo unspecified) | 4 | 3
CCCC(CCC)C(=O)Nc1c(C)nc2sccn2c1=O | 5 | -3
CN(C)c1ncccc1CNS(=O)(=O)c1cccc(F)c1 | 15 | 6
O=C(NCc1ccccc1F)c1cccc(COCC(F)(F)C(F)F)c1 | 1 | -1
COc1ccc(/C=C2N=C(/C=C/c3ccc(C)cc3)OC\2=O)c(OC)c1OC | -2 | -5
O=C(CN1CCN(C(=O)Nc2ccccc2F)CC1)NC1CC1 | 4 | 3
OC1CCCN(c2ccnc(N3CCC(Oc4ccncc4)CC3)n2)C1 (stereo unspecified) | 1 | 0
CCOc1ccccc1N1CCN(C(=O)c2cc(-c3ccc(C)c(C)c3)nn2-c2ccc(OC)cc2)CC1 | 9 | 6
CC(=O)c1ccc(N2CCN(C(=O)c3cc4cc(C)ccc4nc3C)CC2)c(F)c1 | 1 | -5
O=C(c1cc2ccccc2oc1=O)N1CCc2ccccc2C1 | -7 | -15
CCOC(=O)C1CCCN(C(=O)c2cccc(Nc3c(Oc4ccc5c(c4)OCO5)cnn(-c4ccc(Cl)c(Cl)c4)c3=O)c2)C1 (stereo unspecified) | 2 | 9
CCN(CC)c1ncccc1CNCc1cccc2c1OCO2 | 1 | -2
CCn1ncnc1CN1CCCC(CNC(=O)NC2CCCC2)C1 (stereo unspecified) | 1 | -1
O=[N+]([O-])c1ccc(Cl)c(CN2CCCn3cccc3C2c2ccc(Cl)c(Cl)c2)c1 (stereo unspecified) | 20 | 18
Cc1nc2ccccc2nc1N1CCN(C(=O)c2c(F)c(F)c(F)c(F)c2F)CC1 | 4 | 1
CCC(=O)N1CCC(=NNc2ccccc2C(=O)O)CC1 | -2 | 3
Cc1ccc(C(=O)Nc2ccc(Nc3ccc(-n4cccn4)nn3)cc2)c(C)c1 | -4 | -10
Cc1noc(C)c1C(=O)N1CCC1(C)C(=O)NS(=O)(=O)c1ccc(Cl)cc1 (stereo unspecified) | 2 | 2
Cc1cc(C)cc(-c2nc3ccccn3c2NC(=O)C2CCCC2)c1 | 13 | 23
O=C(Cn1nc2c(c1NC(=O)COc1ccc(Cl)cc1)CSC2)NCCc1ccccc1 | -4 | 5
Cc1cc(NC(=O)Cc2ccc(F)cc2)n(-c2ncnc3c2cnn3-c2ccc(Cl)cc2)n1 | 3 | 5
COc1cccc(CO[C@]2(C(=O)NCC3CCCO3)CC(OCc3c(F)cccc3F)[C@H](O)[C@H](O)C2)c1 (stereo partly specified) | 34 | 29
CCOc1ccc(S(=O)(=O)N2CCN(c3cccc(C)c3C)CC2)cc1 | 3 | 3
CC(=O)c1c(C)[nH]c(C(=O)C(C)Sc2nnc(C3CC3)n2C2CC2)c1C (stereo unspecified) | 8 | 7
Cc1ccsc1[C@@H]1CCN(Cc2cc(C#CCO)cs2)C[C@H]1O | 8 | 4
CNS(=O)(=O)c1ccc2c(c1)N(c1cc(Cl)nc(C)n1)CC2 | 2 | -1
Cc1c(C(=O)Nc2nc3c(s2)CCCC3)[nH]c2c1C(=O)CC(C)(C)C2 | 5 | 2
COC(=O)c1ccc(CN2CCN(c3cc(C)ccc3OC)C(=O)C2C)cc1 (stereo unspecified) | -1 | 2
O=C(c1cc2ccccc2oc1=O)n1cncn1 | 2 | -5
O=C(O)c1cccnc1CN1CCc2c([nH]c3ccccc23)C1 | -4 | -4
CC(=O)c1ccc(N2C(=O)C(C)Oc3ccc([N+](=O)[O-])cc32)cc1 (stereo unspecified) | 7 | 6
Cc1cc(NC(=O)C2(C)CCN2C(=O)Cc2ccccc2Cl)no1 (stereo unspecified) | 0 | 1
CCOC(=O)C(c1ccc(OC)c(OC)c1)C1C=CC(NC(=O)c2cc(F)c(Cl)cc2Cl)C1 (stereo unspecified) | 3 | 3
CN(C)c1ccc(/C=C2\C(=O)NC(=O)N(c3ccccc3)C2=O)cc1 | 1 | 0
CC(C)(C)c1ccc(CN2c3cccc4cccc(c34)S2(=O)=O)cc1 | -3 | -3
O=C(NNc1cc(N2CCOCC2)nc(N2CCOCC2)n1)c1ccc([N+](=O)[O-])cc1 | -3 | 5
CC(=O)N1CCc2cc(NC(=O)COc3cc(C)ccc3C)ccc21 | 1 | 0
COCCn1c(SCc2cccc(C)c2)nc2c([nH]c3ccccc32)c1=O | 3 | 2
COc1ccc2cc(C=C(C#N)c3ccccn3)ccc2c1 | 3 | -1
O=C(CCn1nnnc1CN1CCOCC1)N1CCCCC1CCc1ccccn1 (stereo unspecified) | -3 | -3
COC(=O)N(C)CC(=O)Nc1ccc(CC(=O)N(C)c2ccccc2)cc1 | 4 | 0
COCCNC(=O)[C@@]1(OCc2ccccc2C)CC(OCc2cccc(Cl)c2)[C@H](O)[C@H](O)C1 (stereo partly specified) | -3 | 13
O=C(c1ccccn1)N1CCN(Cc2sc3ccccc3c2Cl)CC1 | 2 | 2
O=C(COC(=O)CN1C(=O)NC2(CCCC2)C1=O)NC1CCCC1 | -1 | -6

3 compounds picked at random from the list so far:
SMILES | NPYLR7 ag | NPYLR7 ag max-min
Cc1cc(NC(=O)Cc2ccc(F)cc2)n(-c2ncnc3c2cnn3-c2ccc(Cl)cc2)n1 | 3 | 5
NCC1CCC(C(=O)O)CC1 (stereo unspecified) | -2&0 | -10&-7
CC(=O)c1c(C)[nH]c(C(=O)C(C)Sc2nnc(C3CC3)n2C2CC2)c1C (stereo unspecified) | 8 | 7

The list goes on.
SMILES | NPYLR7 ag | NPYLR7 ag max-min
COc1cccc(-n2c(=O)c3ccc(Cl)cc3n(C(C)C(=O)NCc3ccco3)c2=O)c1 (stereo unspecified) | 19 | 30
C=CCNc1nc(C(=O)OCC(=O)c2ccc[nH]2)cs1 | 1 | 7
CCC1C(=O)C(c2ccccn2)C(=N)N1c1ccccc1 (stereo unspecified) | 2&-3 | 1&-3
CCCC(=O)N=c1sc2cc(F)cc(F)c2n1C | 2 | 1
CC(=O)CSc1nc(C)nc2sc3c(c12)CCC3 | 13 | 2
Cn1ccsc1=NC(=O)c1cccc(NC(=O)C2Cc3ccccc3O2)c1 (stereo unspecified) | -1 | -6
O=S(=O)(c1cccs1)N1CCN2C[C@@H](CO)[C@H](c3ccccc3)[C@H]2C1 | 4 | 0
O=C(c1cccc(Br)c1)N(CC(=O)N1CCc2sccc2C1COc1ccccc1F)C1CC1 (stereo unspecified) | -3 | 0
CCn1nnnc1SCSc1nnnn1CC | 2 | 0
COc1cc(OC)c(NC(=O)NCCNc2nc(C)cc(N3CCCCC3)n2)cc1Cl | 3 | 2
O=C(NCc1ccc(S(=O)(=O)N2CCCCC2)s1)c1ccsc1 | 4 | 9
Cc1cccc(CO[C@]2(C(=O)NC(C)C)CC(OCc3cccc(OC(F)(F)F)c3)[C@H](O)[C@H](O)C2)c1 (stereo partly specified) | 21 | 7
CN(C)CCCN(C(=O)c1ccno1)c1nc2c(F)cc(F)cc2s1 | 4 | 31
COC(=O)c1ccc(C(=O)N2CCN(c3c(Cc4ccccc4)c(C)nc4ncnn34)CC2)cc1 | -1 | 1
C=CCC1(CC=C)CCCN1C(=O)c1nc(=O)[nH]c2ccccc12 | 8 | 4
Cc1nn(-c2ccc(F)cc2)c(C)c1CC(=O)NC(C)CCC1CCCO1 (stereo unspecified) | 2 | 4
Cn1c(-c2ccc(CN3CCCCC3)cc2)nc(=O)c2ccccc21 | 3 | -1

Some of the compounds tested; rates above refer to the full screens.
